Source: PubChem BioAssay
MT1-MMP act inh: blockers of MT1-MMP proenzyme processing, primary screen, HT1080 RFP-PRO-GFP cells, GFP/RFP fluorescence; GFP/RFP ratio fluorescence, overnight; percent of plate control window, DMSO zero; hit rate 0.061% among 360,000; AID 651647, 2012; GFP/RFP ratio change, % at 20 µM; Matrix metalloproteinase-14 (Homo sapiens), P50281;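 active means GFP/RFP ratio change of at least 30% with cell ATP level not reduced by more than half and red fluorescence within 50% of control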; further: strong numbers were not always called active
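Material – HT1080 RFP-PRO-GFP cells · Control set – DMSO wells and RFP-L50D-GFP cells · Incubation – overnight cell settling, then overnight compound exposure, 37 °C, 5% CO2 · Compound dosing – single-point 20 µM compound, 1% DMSO · Read-out – GFP/RFP fluorescence ratio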
PABP FP inh: PABP poly(A) RNA binding inhibitors, primary screen, biochemical, fluorescence polarization, uHTS; Polyadenylate-binding protein 1 (Homo sapiens), P11940; inhibition, % at 35 µM; hit rate 1% among 290,000;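 active means 50% or more with normal probe brightness, or confirmed in later tests; about a fifth of its hits are not listed in these tables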;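 further: calls also rest on retests at 20 µM and on dose response follow-up; controls were probe without protein and protein plus probe with vehicle; some compounds called inactive have numbers as strong as hits; many hits fall short of the cut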
Target sequence (P11940 whole entry, looked up): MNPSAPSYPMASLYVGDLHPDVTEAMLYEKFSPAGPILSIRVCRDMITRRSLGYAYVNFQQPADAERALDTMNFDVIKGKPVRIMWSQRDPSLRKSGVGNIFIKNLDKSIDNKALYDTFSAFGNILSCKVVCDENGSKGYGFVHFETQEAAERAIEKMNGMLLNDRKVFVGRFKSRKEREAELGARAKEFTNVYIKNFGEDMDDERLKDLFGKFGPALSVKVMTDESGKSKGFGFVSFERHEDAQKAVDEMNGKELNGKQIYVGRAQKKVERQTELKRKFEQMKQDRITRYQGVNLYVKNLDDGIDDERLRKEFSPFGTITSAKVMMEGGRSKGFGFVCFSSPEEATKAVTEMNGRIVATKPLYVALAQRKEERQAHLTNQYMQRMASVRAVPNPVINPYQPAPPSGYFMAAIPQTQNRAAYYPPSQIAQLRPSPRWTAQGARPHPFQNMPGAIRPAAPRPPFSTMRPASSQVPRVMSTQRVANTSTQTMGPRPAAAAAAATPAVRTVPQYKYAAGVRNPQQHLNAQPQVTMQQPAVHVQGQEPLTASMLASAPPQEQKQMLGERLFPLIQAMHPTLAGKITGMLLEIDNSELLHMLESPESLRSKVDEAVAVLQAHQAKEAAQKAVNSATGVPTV
Rce1 inhib: yeast Rce1p protease inhibitors, primary screen, biochemical, fluorescence, cell-free homogeneous. CAAX prenyl protease 2 (Saccharomyces cerevisiae (strain ATCC 204508 / S288c)), Q03530. yeast membranes, quenched prenylated peptide cleavage fluorescence. calls only. hit rate 0.27% among 290,000. AID 2563, 2010;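 active means fall in fluorescence gain of 50% or more versus controls, with final raw signal at or below 3038400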;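 further: plate controls were neutral control wells for no effect and wells lacking membranes for full effect; tested at 10 µM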
UUG fidelity: modulators of yeast start codon fidelity, primary screen, whole organism, S. cerevisiae, single point, plate reader; hit rate 0.13% among 350,000; activity score, % at 18.7 µM; S. cerevisiae UUG-firefly luciferase reporter, luminescence/redox ratio;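 active means replicate mean at a twofold rise or more, about +100% in these data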;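 further: firefly luciferase made from a UUG start codon reports start codon fidelity; reporter light over untreated wells divided by growth signal over untreated wells; some hits fall short of that in this replicate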
Env fusion inh: inhibitors of HIV-1 Env-driven cell-cell fusion, primary screen, HeLa-JRFL effector, CEM21 target cells, luciferase; hit rate 1.1% among 360,000; inhibition, % at 12.3 µM; AID 651610, 2012;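 active means mean replicate inhibition score of at least 50 and every replicate individually at or above 50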;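 further: 0% = plate neutral controls and 100% = maraviroc near 300 nM; one replicate is shown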
eIF4H inh: human eIF4H binding inhibitors, primary screen, translation initiation inhibitor project, biochemical, uHTS, fluorescence polarization. inhibition, % at 35 µM. eIF4H fluorescence polarization binding assay. AID 2012, 2009. hit rate 0.94% among 290,000. Eukaryotic translation initiation factor 4H (Homo sapiens), Q15056;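 active means 50% or more with normal probe brightness, or confirmed in later tests; about a fifth of its hits are not listed in these tables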;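 further: calls also rest on retests at 20 µM and on dose response follow-up; 0% = protein and probe with vehicle and 100% = probe without protein; strong numbers were not always called active; many hits fall short of the cut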
CSC inhib: cancer stem cell viability inhibitors, primary screen, luminescence | cancer stem cell-like cells viability | inhibition, % at 7.5 µM | hit rate 1.1% among 300,000;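 active means mean at 75% or more and at least half the replicates too; tested in HMLE shEcad cells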;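 further: 0% = median of negative and 100% = median of positive control wells; the first replicate is given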
MT1-MMP act inh RFP: recorded beside MT1-MMP act inh, whose call it bears; RFP signal change, %; measured here: RFP expression control read;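 0 = vehicle wells; hits needed this value within 50% of zero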
* marks the source's active call; other numbers are inactive results; i = inactive; . = no result given. The list is partial (hit frequency here may not be typical).

(1) C=CCn1c(CNC(=O)c2ccco2)nnc1SCC(=O)Nc1cccc(Br)c1
(2) O=C(Cn1nnc(-c2ccccc2)n1)NCc1ccco1
(3) O=c1c2ccccc2cnn1Cc1n[nH]c(=S)n1-c1ccccc1Cl
(4) Cc1ccc2cc3cc(C(=O)NCc4ccc5c(c4)OCO5)oc3nc2c1
(5) Cc1cc(C)cc(C(O)c2ncc(-c3ccccc3C)[nH]2)c1 (centres undefined)
(6) Cc1cc(C)cc(C(=O)OCC(=O)NC(=O)NC2CCCC2)c1
(7) O=C1NCCCC1C(=O)N/N=C/c1ccccc1 (centres undefined)
(8) C[C@H]1CNC(=O)C(=O)N1C[C@H](Cc1ccc(O)cc1)NC(=O)CC12CC3CC(CC(C3)C1)C2
Assay by compound | 1 | 2 | 3 | 4 | 5 | 6 | 7 | 8
MT1-MMP act inh | 6 | 2 | . | . | 1 | 4 | 1 | -1
MT1-MMP act inh RFP | 3 | 4 | . | . | -3 | 0 | 6 | 0
PABP FP inh | -10 | 1 | 4 | 4 | . | . | -2 | 7
Rce1 inhib | i | i | i | i | . | . | i | i
UUG fidelity | -11 | . | . | -13 | -20 | -5 | 6 | -1
Env fusion inh | -2 | . | -18 | -74 | -4 | 1 | -90 | 13
eIF4H inh | 5 | -2 | 0 | -20 | . | . | -8 | -8
CSC inhib | -9 | 3 | -59 | . | . | . | 3 | 7

(9) Cc1sc2nc(SCC(=O)N(C)C)[nH]c(=O)c2c1C
(10) CCCNC(=O)N1CCC(C(=O)c2ccc(Cl)cc2)CC1
(11) CC1Cc2ccccc2N1Cc1ccc([N+](=O)[O-])cc1 (centres undefined)
(12) N#Cc1cccc(NC(=O)Cn2c3[n+](c4ccc(C(F)(F)F)cc42)CCCCC3)c1
(13) CCC(=O)N1c2ccc(S(=O)(=O)NCc3ccco3)cc2CC1C (centres undefined)
(14) Cc1ccc2cc(C(c3nnnn3Cc3ccccc3)N3CCN(c4ccccc4)CC3)c(=O)[nH]c2c1 (centres undefined)
(15) COc1cccc(Cn2c(-c3cccs3)noc2=O)c1
(16) O=C1C(CO)C(CO)C(CO)C1CO (centres undefined)
Assay by compound | 9 | 10 | 11 | 12 | 13 | 14 | 15 | 16
MT1-MMP act inh | 3 | 1 | -1 | -1 | 1 | -2 | -10 | -2
MT1-MMP act inh RFP | 3 | -3 | 3 | 6 | 3 | 2 | -2 | 2
PABP FP inh | -2 | 3 | 14 | 12 | . | 16 | 2 | .
Rce1 inhib | i | i | i | i | i | i | i | .
UUG fidelity | -9 | -15 | 8 | -12 | -5 | 0 | -7 | -13
Env fusion inh | . | -55 | 12 | 21 | -5 | -28 | -66 | 12
eIF4H inh | -6 | -6 | 8 | -4 | . | 11 | -1 | .
CSC inhib | . | . | 4 | -20 | 8 | -12 | -3 | .

(17) C=CCNC(=S)NNC(=O)c1ccc([N+](=O)[O-])cc1
(18) COc1cc(NS(=O)(=O)c2ccccc2)ccc1-n1nc(C)cc1C
(19) CCc1ccccc1NC(=O)C1CCCN(c2nn3c(=O)cc(C)nc3s2)C1 (centres undefined)
(20) CCCC(C)NC(=O)c1sc2nc3n(c(=O)c2c1C)CCC3 (centres undefined)
(21) O=C(CCCn1cnc([N+](=O)[O-])n1)Nc1cc(Cl)ccc1O
(22) COc1ccc(NC(=O)CN2C(=O)CSC(C)C2=O)c(OC)c1 (centres undefined)
(23) O=C(OCc1ccccc1)N1CCC2CC1c1ccc(N3CCN(Cc4ccc5c(c4)OCO5)CC3)cc12 (centres undefined)
(24) O=C1C(=O)N(CCN2CCOCC2)C(c2cccnc2)/C1=C(/O)c1ccc(Cl)cc1 (centres undefined)
Assay by compound | 17 | 18 | 19 | 20 | 21 | 22 | 23 | 24
MT1-MMP act inh | 6 | 2 | 6 | 3 | 1 | -3 | 1 | 7
MT1-MMP act inh RFP | 1 | -3 | 4 | 9 | 4 | 2 | -24 | 8
PABP FP inh | 0 | -5 | 16 | 2 | -16 | -7 | . | 14
Rce1 inhib | i | i | i | i | i | i | . | i
UUG fidelity | . | -3 | -12 | . | . | -18 | 22 | -6
Env fusion inh | -14 | -3 | -14 | 9 | 5 | -3 | 47 | 9
eIF4H inh | -1 | 8 | -3 | -2 | 0 | -1 | . | -6
CSC inhib | -8 | 11 | -12 | -2 | 0 | -9 | . | -7

(25) C=CCNC(=S)NNC(=O)c1ccc(OCC(C)C)cc1
(26) O=C(Nc1ccccc1Cl)c1cc(C2CCCCN2C(=O)CCc2ccccc2)on1 (centres undefined)
(27) O=C(c1ccc(Cl)c(S(=O)(=O)N2CCCC2)c1)N1CCN(c2ncccn2)CC1
(28) COc1ccccc1NC(=O)CSc1nc(=O)n(Cc2ccncc2)c2c1CCCC2
(29) CN(C(=O)c1ccc(S(=O)(=O)N2CCOCC2)cc1)C1CCS(=O)(=O)C1 (centres undefined)
(30) Cc1cc(-c2nnc3n2N=C(C(C)(C)C)CS3)n[nH]1
(31) O=C(c1ccc(Br)s1)N1CCN(c2ncccn2)CC1
(32) O=C(O)CSCC(=O)NC1CCCc2ccccc21 (centres undefined)
Assay by compound | 25 | 26 | 27 | 28 | 29 | 30 | 31 | 32
MT1-MMP act inh | 0 | 0 | 2 | -6 | 2 | 3 | 3 | 2
MT1-MMP act inh RFP | -2 | -4 | 1 | -9 | 2 | 6 | 5 | 3
PABP FP inh | 13 | . | -1 | . | . | -2 | -1 | -1
Rce1 inhib | i | . | i | i | i | . | i | i
UUG fidelity | -17 | -5 | . | -9 | -10 | -17 | 12 | -9
Env fusion inh | . | 11 | -4 | 28 | 0 | . | 29 | -11
eIF4H inh | 0 | . | 0 | . | . | -3 | -1 | 44
CSC inhib | 6 | . | 4 | -11 | -2 | 2 | 22 | -16

(33) CCOCCCNC(=O)c1ccc2nc(-c3ccc(OC)c(OC)c3)c(-c3ccc(OC)c(OC)c3)nc2c1
(34) COc1ccccc1/C=N/NC(=O)c1ccc(NC(=O)c2ccccc2Br)cc1
(35) Cn1nc(-c2ccccc2)cc1NC(=O)Nc1ccc(F)cc1
(36) CC1=CCC2C(=O)N(c3ccc(C)c(Br)c3)C(=O)C2C1 (centres undefined)
(37) COc1ccc(NC(=O)C2CCN(C(=O)C3CC(=O)N(c4ccc(C)cc4)C3)CC2)c(OC)c1 (centres undefined)
(38) CCOc1nnc(C)c2c(C)n(-c3cccc(OC)c3)nc12
(39) Cn1c(=O)c2c(ncn2CC(O)CO)n(C)c1=O (centres undefined)
(40) O=C(CCN1C(=O)CSC1=O)Nc1ccccc1
Assay by compound | 33 | 34 | 35 | 36 | 37 | 38 | 39 | 40
MT1-MMP act inh | 3 | 3 | 4 | 3 | . | 0 | -2 | -9
MT1-MMP act inh RFP | 1 | 7 | 5 | -1 | . | 6 | -1 | 1
PABP FP inh | 4 | -4 | 2 | -7 | -1 | -1 | 2 | -18
Rce1 inhib | i | i | i | i | i | i | i | i
UUG fidelity | 9 | . | . | -6 | -10 | -6 | -13 | -5
Env fusion inh | 26 | 8 | -2 | 3 | 9 | . | -3 | -201
eIF4H inh | -6 | 3 | 0 | -3 | 3 | -6 | 3 | -6
CSC inhib | -18 | 0 | -8 | 2 | -5 | -12 | -7 | -11

Given with two lines to a compound: five of the compounds above
Order of values: MT1-MMP act inh	MT1-MMP act inh RFP	PABP FP inh	Rce1 inhib	UUG fidelity	Env fusion inh	eIF4H inh	CSC inhib
35	Cn1nc(-c2ccccc2)cc1NC(=O)Nc1ccc(F)cc1
    4	5	2	i	.	-2	0	-8
40	O=C(CCN1C(=O)CSC1=O)Nc1ccccc1
    -9	1	-18	i	-5	-201	-6	-11
36	CC1=CCC2C(=O)N(c3ccc(C)c(Br)c3)C(=O)C2C1 (centres undefined)
    3	-1	-7	i	-6	3	-3	2
39	Cn1c(=O)c2c(ncn2CC(O)CO)n(C)c1=O (centres undefined)
    -2	-1	2	i	-13	-3	3	-7
38	CCOc1nnc(C)c2c(C)n(-c3cccc(OC)c3)nc12
    0	6	-1	i	-6	.	-6	-12

Next part
(41) CCOC(=O)c1c(S(=O)(=O)NCC(=O)NCc2ccc(C)cc2)c(C)n(C)c1C
(42) O=C(NCCc1nccs1)C1CCC(=O)N(CCc2ccc(Cl)cc2)C1 (centres undefined)
(43) CN1C(=O)N(CC(=O)c2ccc3c(c2)OCO3)C(=O)C12CCCCC2
(44) O=C(CN1CCOCC1)Nc1ncc(Cc2cccc(Cl)c2)s1
(45) NC(=O)N/N=C1\c2ccccc2-c2c(C(N)=O)cccc21
(46) N[C@@H](CO)c1nnc([C@H](CC(=O)O)NC(=O)C2CCNCC2)o1
(47) CC(C(=O)N1CCCCC1)N1C(=O)c2ccccc2C1=O (centres undefined)
(48) COc1ccc(C2(O)CCN(Cc3nnnn3Cc3ccc(C)cc3)CC2)cc1
Assay by compound | 41 | 42 | 43 | 44 | 45 | 46 | 47 | 48
MT1-MMP act inh | 0 | -3 | 0 | 6 | -3 | 6 | 2 | 7
MT1-MMP act inh RFP | 6 | -2 | 3 | 4 | -5 | 2 | 2 | -2
PABP FP inh | . | -13 | . | -5 | -5 | -1 | 5 | -6
Rce1 inhib | i | . | . | i | i | i | i | i
UUG fidelity | 1 | -13 | -23 | -11 | -5 | 2 | -15 | 5
Env fusion inh | 1 | 2 | -4 | -1 | 8 | 7 | . | .
eIF4H inh | . | -12 | . | -2 | -10 | 1 | 1 | -8
CSC inhib | -6 | -7 | . | -5 | -12 | -8 | 0 | .

(49) OCCC1CN(Cc2ccc(Oc3ncccn3)cc2)CCN1CCc1ccccc1 (centres undefined)
(50) COc1ccc(C(=O)NC(=S)Nc2ccc(Cc3ccncc3)cc2)cc1
(51) COc1ccc(OCC2NCCc3cc(OC)c(OC)cc32)cc1 (centres undefined)
(52) O=C(C1=NN[C@@H]2C(=O)N(Cc3ccccc3)C(=O)[C@H]12)c1ccc(F)cc1
(53) CCC(C)[C@H](NC(=O)NCCCn1ccnc1)C(=O)OC (some centres undefined)
(54) CCOC(=O)c1c(C)[nH]c(C)c1C(=O)COC(=O)c1cc2ccccc2cc1OC
(55) O=C(COC(=O)c1nc(Cl)ccc1Cl)Nc1ccc(Cl)cn1
(56) COc1cc(OC)c2c(C)cc(=O)oc2c1C(CCN1CCN(c2ccccc2)CC1)c1ccc2c(c1)OCO2 (centres undefined)
(57) COc1ccc(-c2[nH]ncc2CN2CCC(O)(c3ccc(Cl)cc3)CC2)cc1
(58) C/C(=N\Nc1nc(-c2cc(C)ccc2C)cs1)c1cc2c(ccc3ccccc32)oc1=O
(59) N#Cc1nc(-c2cccc(Cl)c2)oc1NCc1cccnc1
Assay by compound | 49 | 50 | 51 | 52 | 53 | 54 | 55 | 56 | 57 | 58 | 59
MT1-MMP act inh | -15 | -1 | -3 | 0 | -5 | 2 | -6 | 7 | -4 | -2 | 2
MT1-MMP act inh RFP | -2 | -5 | 1 | 0 | -2 | -6 | 2 | -6 | -1 | 6 | -2
PABP FP inh | -2 | 6 | -9 | -1 | -10 | 1 | . | 0 | 0 | -3 | -8
Rce1 inhib | i | i | i | i | i | i | . | i | i | i | i
UUG fidelity | . | . | -6 | -4 | -2 | 3 | -8 | -9 | -9 | . | -27
Env fusion inh | -22 | 1 | 0 | 4 | 14 | 17 | 20 | 16 | 35 | -23 | -17
eIF4H inh | 0 | -8 | -9 | -16 | -4 | -3 | . | 1 | -1 | 10 | -16
CSC inhib | 0 | -13 | -13 | -8 | -3 | -3 | . | 20 | 23 | 6 | 5
